Source: PubChem (National Center for Advancing Translational Sciences (NCATS))
LASV entry inh: blocks Lassa virus binding to or entry into cells; Potency, µM (series often up to 37.9 µM), for inactives: at the top dose activity change, negative = inhibition, hits mostly inhibitors; hit rate 1.2% among 300,000; Lassa virus pseudotype entry inhibition, cell reporter; control for the full effect not named in the record; active means well fitted inhibition curve with a large enough effect; inconclusive means small, poorly fitted or top-dose-only effect, or effect the other way; inactive means flat fitted curve, though single readings scatter; tested in HEK293 cells; note: % is set by controls: 0 for no effect and ±100 for the full control effect; nearly all actives have a fitted effect of over 50% in size; luciferase read-out
Marburg entry inh: blocks Marburg virus binding to or entry into cells. Marburg virus pseudotyped entry inhibition, cell reporter; control for the full effect not named in the record; about a third of the inactives were read at about 46 µM. Potency, µM (doses to about 37.8 µM), for inactives: at the highest dose activity change, negative = inhibition, actives largely listed as inhibitors. hit rate 1.8% among 300,000; active = well fitted inhibition curve with a large enough effect; inconclusive = small, poorly fitted or top-dose-only effect, or effect the other way; inactive = flat fitted curve, though single readings scatter; tested in HEK293 cells; about a fifth of its hits are not listed in these tables; note: % is set by controls: 0 for no effect and ±100 for the full control effect; luciferase read-out
StopGo reporter: lowers the luciferase signal of an FMDV 2A StopGo reporter | AID 1159524 | hit rate 1.2% among 410,000 | human cells with a luciferase reporter of 2A StopGo recoding; control for the full effect not named in the record | Potency, µM (top dose mostly 57.9 µM), without a hit: at the highest dose signal change, negative = less light; active = well fitted falling curve with a large enough effect; inconclusive = small, poorly fitted or top-dose-only effect; inactive = no such curve, though single readings can be large or run the other way; tested in HEK293T cells; note: % is set by controls: 0 for no effect and ±100 for the full control effect; nearly all actives have a fitted effect of over 45% in size; luciferase light after 4 h
NS1 function inh: blocks influenza NS1 protein function; S. cerevisiae slowed by influenza A NS1, growth recovery by OD600; AID 2326; Potency, µM (top dose mostly 46.1 µM), without a hit: at the highest dose activity, positive = more growth; hit rate 0.4% among 270,000; active means well fitted rising curve with a large enough effect; inconclusive means small, poorly fitted or top-dose-only effect; inactive means no such curve, though single readings can be large or run the other way; note: nearly all actives have a fitted effect of over 50% in size
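In this qHTS, NS1 from influenza A is expressed in budding yeast, where it slows growth. Cells are switched from glucose to 2% galactose medium (pH 6.0, -URA), treated with compound, and growth recovery is read at OD600.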
SARS PLpro yeast: SARS-CoV PLP inhibition in yeast; S. cerevisiae expressing SARS-CoV PLpro, growth rescue; control for the full effect not named in the record; hit rate 0.19% among 330,000; AID 485353; Potency, µM (doses to about 32.9 µM), for inactives: at the highest dose activity, positive = growth rescue; active means well fitted rising curve with a large enough effect; inconclusive means small, poorly fitted or top-dose-only effect; inactive means no such curve, though single readings can be large or run the other way; note: 0% is about no effect; nearly all actives have a fitted effect of over 55% in size; growth read by luminescence after 48 h
RE007 growth inh: less growth of the S. pombe RE007 Vpr strain | S. pombe RE007 Vpr strain, BacTiter-Glo ATP luminescence, 24 h; control for the full effect not named in the record | Potency, µM (doses to about 92.2 µM), inactives show top-dose activity change, negative = less growth | hit rate 0.21% among 360,000; active = well fitted falling curve with a large enough effect; inconclusive = small, poorly fitted or top-dose-only effect; inactive = no such curve, though single readings can be large or run the other way;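 note: % is set by controls: 0 for no effect and ±100 for the full control effect; nearly all actives have a fitted effect of over 50% in size; the assay follows cell death caused by Vpr and the record does not say whether a fall means rescue or toxicity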
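Fission yeast strain RE007, carrying one chromosomally integrated HIV-1 vpr copy, was seeded at OD 0.01 in PMG+AL medium with 23 nL pinned compound. After 24 h at 30 °C and 99% humidity, viability was read by BacTiter-Glo luminescence.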
Cruzain noTriton: blocks cruzain activity in detergent-free assay; P25779; purified cruzain, Z-FR-AMC fluorescence, no detergent; Potency, µM, without a hit: max response, negative = inhibition, hits mostly inhibitors; hit rate 2.3% among 200,000;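 note: plate controls were enzyme without inhibitor for no effect and buffer without enzyme for full effect; nearly all actives have a fitted effect of over 40% in size; top concentration of the series not given in the record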
Target sequence (P25779 123-467 limits assumed): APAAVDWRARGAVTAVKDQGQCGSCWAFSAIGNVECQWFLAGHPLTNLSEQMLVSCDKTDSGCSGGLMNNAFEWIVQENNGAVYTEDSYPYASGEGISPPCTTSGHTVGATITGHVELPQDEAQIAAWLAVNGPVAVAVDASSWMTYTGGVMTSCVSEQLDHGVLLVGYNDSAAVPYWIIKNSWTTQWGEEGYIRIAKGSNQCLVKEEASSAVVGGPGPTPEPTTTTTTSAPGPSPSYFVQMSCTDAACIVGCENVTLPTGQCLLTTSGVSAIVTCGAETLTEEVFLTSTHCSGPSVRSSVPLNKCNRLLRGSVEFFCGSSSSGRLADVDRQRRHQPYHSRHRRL
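Detergent-free condition (0.00005% Triton X-100) in acetate buffer pH 5.5 with DTT. 1.5 nM enzyme and compound were pre-mixed 15 min, then 2 uM Z-FR-AMC substrate added; reaction progress from fluorescence change between first and third reads (60 s).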
Cruzain inh Det: cruzain (T. cruzi) inhibition with detergent; P25779; purified cruzain, Z-FR-AMC fluorescence, 0.01% Triton; Potency, µM, for inactives: max response, negative = inhibition, hits mostly inhibitors; hit rate 0.43% among 200,000; AID 1478;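 note: plate controls were neutral wells for no effect and buffer without enzyme for full effect; nearly all actives have a fitted effect of over 40% in size; top concentration of the series not given in the record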
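Steps: dispense cruzain (1.5 nM final) in acetate buffer pH 5.5 with DTT and 0.01% Triton X-100; pin-transfer compounds; incubate 15 min RT; add Z-FR-AMC (2 uM final); read fluorescence every 30 s, using the 60 s intensity change.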
Numbers without * were called inactive; ? = inconclusive; nt = not tested or not shown; & = joins results of further samples; [ ] = another dose, or the depositor's remark. Unless noted, calls come from the whole dose curve; as a rule, active = well fitted curve in the direction sought with a large enough effect; inconclusive = small, poorly fitted or top-dose-only effect, or another doubt; inactive = no such curve, though single readings can be large; an effect the other way counts as inactive or inconclusive. Potency is the fitted concentration of half-maximal effect.

smiles	LASV entry inh	Marburg entry inh	StopGo reporter	NS1 function inh	SARS PLpro yeast	RE007 growth inh	Cruzain noTriton	Cruzain inh Det
CC1(C(=O)OCC(=O)c2c[nH]c3ccccc23)CC1(Cl)Cl (stereo not given)	nt	-4%	49%[activator]	-108%	-21%	2%	1%	-4.2%
COc1cccc(Nc2nc(CN3CCOCC3)nc3sc4c(c23)CCCC4)c1	-27%	10%	?	-1%	11%	-14%	3%	-8.0%
O=S(=O)(c1ccccc1)N1CCCCC1c1cccnc1 (stereo not given)	1%	-13%	nt	-19%	-1%	4%	8%	5.5%
CN1CCN(c2ccc([N+](=O)[O-])c3no[n+]([O-])c23)CC1	0.32µM*	0.56µM*	5µM*	-94%	-5%	32µM*	nt	nt
O=c1[nH]c(N2CCOCC2)nc2c1CCCC2	14%	9%	-5%	0%	0%	3%	5%	7.1%
Cc1cc(S(=O)(=O)N2CCC(N3CCCCC3)CC2)ccc1-n1cnnn1	1%	-2%	-7%	24%	0%	10%	-9%	0.0%
C=CCNC(=O)c1sc(=S)n(-c2ccc(C(=O)OCC)cc2)c1N	1%	28%	6%	-76%	-15%	5%	-4%	-6.0%
CCc1nnc(NC(=O)C2CCCN2C(=O)Nc2ccccc2)s1 (stereo not given)	-21%	-23%[46.1 µM]	5%	3%	1%	7%	nt	nt
CCC(C)N(C(=O)CSc1nnc(C)n1C)C1CCS(=O)(=O)C1 (stereo not given)	1%	10%[46.1 µM]	4%	nt	3%	3%	nt	nt
CCC(C)[C@H](NC(=O)C1CC(=O)N(c2ccc3c(c2)OCCO3)C1)C(=O)NC1CCCC1 (stereo not given in full)	?	-18%[46.1 µM]	-5%	3%	5%	16%	nt	nt
COc1ccc(OCc2nnc(SCC(=O)N3CCCCC3)o2)cc1	0%[46.1 µM]	6%[46.1 µM]	37%	-12%	1%	5%	nt	nt
O=C(Cc1ccc(Cl)cc1)NC1CCS(=O)(=O)C1 (stereo not given)	nt	nt	5%	3%	-1%	5%	nt	nt
CCOC(=O)/C(C#N)=C/c1cn(CCOc2ccc(OC)cc2)c2ccccc12	22%	?	-11%	5%	-11%	4%	-22%	-7.0%
COc1ccc(CNC(=O)c2cccc3c2C(=O)N(CC2CCCO2)C3)cc1 (stereo not given)	nt	nt	-21%	5%	3%	11%	nt	nt
COc1ccc2cc3cc(C(=O)NCc4ccc(C)cc4)oc3nc2c1	nt	-7%[46.1 µM]	-21%	nt	nt	nt	2%	-4.2%
Cc1cc(C)cc(-n2ncc3c2CCCC3NC(=O)CCCn2cncn2)c1 (stereo not given)	-21%	11%	12%	nt	nt	14%	nt	nt
COC(=O)c1ccsc1NC(=O)c1ccc2c(c1)OCCO2	nt	nt	34%[activator]	2%	2%	5%	nt	nt
COC(=O)c1[nH]c2ccc(C)cc2c1NS(=O)(=O)c1ccc(F)c(C)c1	?	17%	-10%	1.8µM*	1%	-17%	11%	-9.6%
O=C(CCl)NC1(C(F)(F)F)C(=O)Nc2c1c(=O)[nH]c(=O)n2-c1ccccc1 (stereo not given)	?	-8%[46.1 µM]	58%[activator]	3%	1%	-4%	nt	nt
COc1ccc(NS(=O)(=O)c2cccc(NC(=O)CNC(C)=O)c2)cc1	-2%	4%	34%[activator]	-2%	0%	3%	nt	nt
CC(=O)c1ccc(NC(=O)C2CCN(S(=O)(=O)c3c(C)noc3/C=C/c3ccc(C)cc3)CC2)cc1	20%[46.1 µM]	nt	?	nt	nt	nt	10%	0.8%
Cn1nnc2c(sc3nc(N4CCOCC4)c4c(c32)CCCC4)c1=O	2%	19%&19%	-9%	-3%	1%	6%	4%	0.7%
Cc1cc(NC(=O)CSc2nnnn2C2CCCC2)no1	6%	-1%	10%	4%	4%	4%	-2%	4.1%
O=C(NCc1ccc2c(c1)OCO2)c1nc(S(=O)(=O)Cc2ccccc2F)ncc1Cl	nt	nt	22µM*	-2%	14%	2%	nt	nt
CS(=O)(=O)N(CC(=O)Nc1ccc(Cl)c(Cl)c1)C1CCCCC1	1%	?	-2%	8%	-39%	22%	3%	-2.7%
CCC(NS(=O)(=O)c1c(C)[nH]c(=O)[nH]c1=O)C12CC3CC(CC(C3)C1)C2 (stereo not given)	-10%	0%	0%	-7%	26%	16%	2%	2.2%
O=C(NC1CCCN(CCc2ccccc2)C1)C1CCCC1 (stereo not given)	1%[46.1 µM]	?	-5%	7%	nt	14%	nt	nt
CC(=O)Nc1nc(-c2ccc(Br)s2)cs1	-14%	39%	19%	-9%	9%	-22%	13µM*	2.7%
Cc1oc(-c2ccc(-c3ccccc3)cc2)nc1CN(CCO)C(C)C	?	?	?	-12%	-3%	-6%	nt	nt
O=C(Nc1ccc(NC(=O)c2ccccc2Br)cc1)c1ccccc1	nt	nt	42%[activator]	2%	-1%	19%	nt	nt
CCc1ccc(CN(C)C(=O)c2cc(COc3cccc4cnccc34)on2)cc1	nt	nt	?	-89%	-11%	4%	nt	nt
CCCS(=O)(=O)N1CCC(C(=O)NCCN(C)Cc2ccccc2)CC1	22%	10%	8%	-7%	-1%	2%	-10%	5.1%
CC1=C(c2ccc(C)c(C)c2)S(=O)(=O)N=C1N1CCC(C(=O)Nc2cccc(F)c2)CC1	-21%[46.1 µM]	nt	-19%	nt	nt	nt	26%	-6.4%
CCOC(=O)N1CCC(NC(=O)C2CCCN(C(=O)N3CCOc4ccccc43)C2)CC1 (stereo not given)	0%	5%	-15%	-22%	0%	2%	?	5.3%
COc1ccc(OC)c(/C=C2\SC(=S)N(NS(=O)(=O)c3ccc(C)cc3)C2=O)c1	6%[46.1 µM]	0%[46.1 µM]	-3%	-5%	-4%	12%	nt	nt
CCOc1ccc2c(c1)sc(=NC(=O)C1CC1)n2C	-4%	1%	nt	-30%	nt	10%	-14%	-4.1%
CS(=O)(=O)N(CC(=O)N1CCc2ccccc2C1)c1ccc2c(c1)OCO2	2%	3%	0%	-8%	2%	5%	9%	-1.2%
CC1=NN(C(=O)COc2ccccc2C)C(O)(c2ccc(Cl)cc2)C1 (stereo not given)	19%	?	4%	-1%	22%	30%	2%	-6.2%
CC(C)CCNS(=O)(=O)c1cc2c3c(c1)CCN3C(=O)CC2	nt	nt	15%	1%	-1%	12%	nt	nt
CNc1nc(N)c([N+](=O)[O-])c(N2CCCCCC2)n1	nt	nt	-8%	-10%	-2%	16%	nt	nt
CCn1c(O)c(/C=N/NC(=O)c2ccccc2)c(=O)n(CC)c1=S	?	?	0%	-5%	1%	6%	nt	nt
CN(Cc1ccccc1)S(=O)(=O)c1ccc(Cl)c(C(=O)N2CCC(C(N)=O)CC2)c1	10%[46.1 µM]	7%[46.1 µM]	-11%	nt	8%	-2%	nt	nt
Oc1ccc(/C=N/Nc2ccc3ccccc3c2)c(O)c1	?	26%	70%[activator]	nt	-1%	7%	nt	nt
O=C(CNC(=O)c1cccnc1)N/N=C/c1cc(Br)c(O)c(Br)c1	5%[46.1 µM]	-1%[46.1 µM]	-19%	4%	-2%	8%	nt	nt
O=C(CN1CCCC1c1cccs1)N1CCN(S(=O)(=O)c2ccccc2)CC1 (stereo not given)	16%	5%	-23%	nt	2%	7%	nt	nt
CN(C)S(=O)(=O)c1cccc(-c2cn3cccnc3n2)c1	-19%	?	5%	0%	1%	-4%	nt	nt
Cc1nc(SCC(=O)NC2CCCCC2C)nc(C)c1C (stereo not given)	16%[46.1 µM]	-18%[46.1 µM]	-2%	nt	8%	57%	nt	nt
CCNS(=O)(=O)c1ccc(CCC(=O)Nc2ccccc2)cc1	-3%[46.1 µM]	-11%[46.1 µM]	-13%	6%	0%	4%	nt	nt
Cc1cc(C)n2nc(C(=O)N3CCCC(N4CCN(c5ccccc5C)CC4)C3)cc2n1 (stereo not given)	-4%	?	-26%	-13%	-5%	0%	nt	nt
COC(=O)c1cc(NC(=O)CN(c2cccc(OC)c2)S(=O)(=O)c2ccccc2)ccc1Cl	10µM*	16µM*	?	25%	-2%	11%	19%	-5.8%
COc1ccc(N=Cc2c(O)n(-c3ccc(OC)cc3)c(=O)c3ccccc23)cc1	-8%[46.1 µM]	?	-23%	nt	-1%	6%	nt	nt
Cc1cccc2c(C(=O)O)cc(-c3cccnc3)nc12	-15%	8%[46.1 µM]	-7%	4%	2%	39%	nt	nt
CC(CC(=O)Nc1ccc(Br)cc1F)S(=O)(=O)c1ccc2c(c1)NC(=O)CO2 (stereo not given)	?	-13%&-13%[46.1 µM]	0%&-28%	-10%	1%	-11%	nt	nt
CCOC(=O)N1CCC(N2CCCC(C(=O)c3cccc(OC(C)C)c3)C2)CC1 (stereo not given)	?	?	-17%	-1%	3%	-1%	nt	nt
O=C(O)Cn1c(=O)c2c3c(sc2n(Cc2ccc(F)cc2)c1=O)CCCC3	5%	?	-10%	6%	0%	-9%	nt	nt
O=C1C2C(C(=O)N1c1ccc3c(c1)OCO3)C1C=CC2C12CC2 (stereo not given)	-3%	5%	nt	8%	3%	-3%	3%	1.2%
CC(CNC(=O)c1cccs1)c1ccc([N+](=O)[O-])cc1 (stereo not given)	nt	nt	?	-8%	-3%	2%	nt	nt
Cc1cccc(-n2c(N)cc(=O)nc2SCC(=O)Nc2nnc(CC(C)C)s2)c1	nt	1%	nt	14%	-18%	nt	-9%	?
CCOc1cc(C(=O)Oc2cc(C)[nH]c(=O)c2[N+](=O)[O-])cc(OCC)c1OCC	nt	nt	-6%	-1%	-1%	27%	nt	nt
COCCNC(=O)c1cc2c(s1)-c1ccc(Cl)cc1SC2	?	?	2%	-2%	-6%	-2%	nt	nt
Cc1cc(C)nc(N/N=C/c2ccccc2OCC(=O)O)n1	?	16%[46.1 µM]	-7%	13%	-3%	-2%	nt	nt
CCOC(=O)C(Cc1ccccc1)NC(=O)CCc1c(C)nc2c(c(C)nn2-c2ccc(C)c(C)c2)c1C (stereo not given)	12%[46.1 µM]	12%[46.1 µM]	-17%	nt	nt	nt	2%	2.5%
